Screening data (PubChem)
A647 fluor: compound fluoresces in the A647 spectral region. AID 592. max dye-equivalent concentration, M. Compound fluorescence, A647 channel (570/671 nm), Tris buffer. 59,000 tested, under 10 active; active means above 1 µM dye equivalent; inconclusive means 0.1 to 1 µM; inactive means 0.1 µM or less;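 also: values scaled relative to a standard on each plate; highest value over a series up to 38 µM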
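Each compound's intrinsic fluorescence at 570 nm excitation and 671 nm emission is measured across its concentration series in 100 mM Tris, pH 8.0, after 15 min at room temperature, and reported relative to an A647 curve.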
Resorufin fluor: compounds fluorescent in resorufin spectral region; Compound fluorescence, resorufin region 547/598 nm, buffer; hits give high values; max dye-equivalent concentration, M; 0.04% of 59,000 active; active = above 10 nM dye equivalent; inconclusive = 1 to 10 nM; inactive = 1 nM or less; a few of its hits are not listed in these tables; also: highest value over a series up to 38 µM
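Read-out: intrinsic compound fluorescence at ex 547/em 598 nm after 15 min at RT in pH 8.0 Tris (100 mM). Values expressed as resorufin-equivalent concentration from per-plate standard series.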
TSHR ag: TSH receptor (human) agonism. P16473. HEK293-CNG-TSHR cells (CNG channel as cAMP sensor), membrane potential dye, cAMP. Potency, µM (top dose mostly 57.1 µM), inactives show at the top dose activation, usual class: activators. 0.48% of 73,000 active; active = well fitted activation curve of enough size with the parental cells flat; inconclusive = any curve in the parental cells; inactive = parental cells flat and receptor cells flat or falling; also: potency is read from the fitted curve at half-maximal effect; % of control where 0% means no effect; weak receptor curves with flat parental cells got no call and are not listed
Target sequence (P16473 whole entry, looked up): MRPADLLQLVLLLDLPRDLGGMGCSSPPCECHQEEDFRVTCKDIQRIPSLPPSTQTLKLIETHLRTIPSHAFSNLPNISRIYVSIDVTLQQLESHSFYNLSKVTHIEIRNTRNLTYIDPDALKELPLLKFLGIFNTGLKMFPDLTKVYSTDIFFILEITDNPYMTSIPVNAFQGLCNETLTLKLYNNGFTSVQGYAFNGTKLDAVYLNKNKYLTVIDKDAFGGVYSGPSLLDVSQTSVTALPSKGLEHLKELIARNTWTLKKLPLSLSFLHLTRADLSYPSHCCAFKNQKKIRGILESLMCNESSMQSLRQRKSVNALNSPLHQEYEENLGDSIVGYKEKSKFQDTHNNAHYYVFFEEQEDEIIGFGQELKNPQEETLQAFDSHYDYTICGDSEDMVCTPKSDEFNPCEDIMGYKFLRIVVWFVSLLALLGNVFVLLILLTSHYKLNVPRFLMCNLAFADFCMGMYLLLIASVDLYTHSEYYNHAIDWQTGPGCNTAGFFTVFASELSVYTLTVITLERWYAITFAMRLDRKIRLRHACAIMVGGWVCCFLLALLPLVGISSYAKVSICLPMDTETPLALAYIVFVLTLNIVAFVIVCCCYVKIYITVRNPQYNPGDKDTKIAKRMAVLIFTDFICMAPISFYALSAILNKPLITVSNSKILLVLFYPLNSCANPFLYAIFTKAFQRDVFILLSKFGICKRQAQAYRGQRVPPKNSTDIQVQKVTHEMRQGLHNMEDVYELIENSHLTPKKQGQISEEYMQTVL
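HEK 293 cells stably expressing TSHR and a modified CNG channel, with CNG-only parental cells as counterscreen, were preloaded 60 min at room temperature with membrane potential dye containing 100 uM RO 20-1724. Compound exposure was 30 min, and depolarization was read as fluorescence at 590 nm.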
A488 fluor: compound fluoresces in the A488 spectral region; max dye equivalency, M; 0.1% of 59,000 active; compound autofluorescence, A488 spectral region, dye equivalency; hits give high values; active = above 10 nM dye equivalent; inconclusive = 1 to 10 nM; inactive = 1 nM or less; about half of its hits are not listed in these tables;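 also: highest value over a series up to 38 µM; compound alone in buffer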
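Spectroscopic profiling in the A488 region: compounds in pH 8.0 Tris (100 mM), 15 min RT, CCD imaging with 480 nm excitation and 540 nm emission; responses normalized against A488 dye standards.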
AID923: qHTS Assay for Allosteric/Competitive Inhibitors of Caspase-1: Spectroscopic Profiling in AFC Spectral Region; Potency, µM (top dose mostly 57.5 µM), inactives show at the highest dose fluorescence increase, hits mostly activators; 1.1% of 75,000 active; compound fluorescence, AFC spectral region (405/520 nm); almost no hit is shown here; active = well fitted activation curve with a large enough effect; inconclusive = small, poorly fitted or top-dose-only effect;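 also: potency is read from the fitted curve at half-maximal effect; 0% is about no effect; scaled to a free AFC standard on each plate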
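Baseline compound fluorescence (AFC region, 405 nm ex/520 nm em) taken from the intercept of kinetic reads with 50 nM caspase-1 and 5 uM Ac-WEHD-AFC; normalized to an on-plate AFC standard curve; compounds titrated up to 57 uM.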
* = called active by the depositor; i = inactive; u = inconclusive; x = not tested or not shown; [ ] = dose if it differs, or a comment.

1) COC(=O)c1ccccc1N(Cc1ccccc1)S(C)(=O)=O
2) CC(=O)OCC1OC(C#Cc2ccc(C(C)(C)C)cc2)C=CC1OC(C)=O (configuration not stated)
3) Cc1cccc(-n2c(=O)[nH]c3c(C(N)=O)nc(-c4ccccc4Cl)nc32)c1
4) CCOC(=O)C(C)Sc1nc2c([nH]c3ccccc32)c(=O)n1C (configuration not stated)
5) O=C1[C@H]2[C@H]3[C@H](O)[C@H](O)C/C(=N/OC[C@@H](O)COCc4ccco4)[C@H]3CC[C@@H]2C(=O)N1Cc1ccc2c(c1)OCO2
6) CCOc1ccccc1NC(=O)CSc1nnc(CNC(=O)COc2ccc(Cl)cc2)o1
7) C=CCc1cccc(C2C(C)CCC3C(=O)N4C(CCC(C)C4c4cccc(CC=C)c4)C(=O)N32)c1 (configuration not stated)
8) Cc1nnc(NC(=O)CSc2ccccn2)s1
Compound,1,2,3,4,5,6,7,8
A647 fluor,x,x,x,1e-09,x,1e-09,x,1e-09
Resorufin fluor,x,x,x,i,x,i,x,i
TSHR ag,8%,1%[11.4 µM],6%,u,-1%[11.4 µM],0%[11.4 µM],10%[11.4 µM],11%
A488 fluor,x,x,x,i,x,i,x,i
AID923,-0.2%,1.7%[11.5 µM],1.3%,1.9%,-2.6%[11.5 µM],-0.5%,-1.1%[11.5 µM],-1.0%

9) COc1ccc(NC(=O)N2CCC3(CC2)CCN(C(=O)c2cccc(F)c2)CC3)cc1
10) CCOC(=O)N1CCN(C(=O)c2ccc(CS(=O)(=O)c3c(Cl)cccc3Cl)o2)CC1
11) O=C(COC(=O)C1CC2C=CC1C2)Nc1ccc2c(c1)OC(F)(F)O2 (configuration not stated)
12) COc1ccc(CCNc2oc(Cc3cccc4ccccc34)nc2C#N)cc1OC
13) COc1ccccc1-c1nnc(NC(=O)c2ccc(S(=O)(=O)N(C)Cc3ccccc3)cc2)o1
14) Cc1ccc(O)c(-c2cc(C(F)(F)C(F)F)nc(-c3ccccc3)n2)c1
15) Cc1c(C(=O)N2CCOCC2)[nH]c2ccc(OCc3ccccc3)cc12
16) CCCOc1ccccc1Nc1nnc(C)c(=O)[nH]1
Compound,9,10,11,12,13,14,15,16
A647 fluor,2.3e-09,x,1.8e-09,1e-09,1.8e-09,x,1e-09,1e-09
Resorufin fluor,i,x,i,i,i,x,i,i
TSHR ag,-3%,5%,-4%,20µM*,-1%,25%,2%,-1%
A488 fluor,i,x,i,i,i,x,i,i
AID923,1.4%,-1.6%,-1.6%,1.0%,0.9%,-0.9%,-0.6%,2.9%

17) CC(C)NC(=O)N1CCC2(CC1)CCN(C(=O)c1cnccn1)CC2
18) CCN(CC)c1ccc(/C=N/NC(=O)c2ccc(O)cc2)cc1
19) CC(C)(C)NC(=O)CSc1nnc(-c2ccncc2)n1Cc1ccccc1
20) O=C(Nc1ccc(Cl)cn1)c1cccc(F)c1
21) Cc1ccc(-c2nnnn2CS(=O)(=O)c2ccccc2)cc1
22) COc1ccccc1CN1CC[C@@]2(CCCN(C(=O)c3cccc(F)c3)C2)C1
23) CC(NC(=O)c1cccc(F)c1)C(c1cccs1)N1CCN(C)CC1 (configuration not stated)
24) O=C(CSc1nnc(Cc2ccccc2)o1)NC1CCCCC1
Compound,17,18,19,20,21,22,23,24
A647 fluor,1.4e-09,x,7.7e-09,x,3.6e-08,2.2e-09,2.2e-08,4.5e-09
Resorufin fluor,i,x,i,x,i,i,i,i
TSHR ag,4%,u,1%,u,0%[11.4 µM],11%,-3%,10%
A488 fluor,i,x,i,x,i,i,i,i
AID923,3.6%,16%,0.9%,6.3%,0.4%,1.1%,-0.6%,-0.9%

25) COC(=O)c1cnn2c3c(c(C)nc12)CCCC3
26) COc1ccc(OC)c2[nH]c(=O)c(CCNS(=O)(=O)c3ccc(Cl)cc3)cc12
27) COc1ccc(-c2nc(C(=O)N3CCN(C)CC3)sc2-c2ccc(OC)cc2)cc1
28) CNc1nnc(-c2ccncc2)s1
29) CCCc1cc(=O)[nH]c(SCC(=O)N(C)C2CCS(=O)(=O)C2)n1 (configuration not stated)
30) COCC(=O)N(Cc1cc2ccc(C)cc2[nH]c1=O)c1ccc(OC)cc1
31) O=C1c2cccc(O)c2C(=O)c2c(O)cccc21
32) CCOC(=O)C1=C(C)Nc2ccccc2N=C1NC(=O)c1cccc(S(=O)(=O)N(C)C)c1
Compound,25,26,27,28,29,30,31,32
A647 fluor,1.8e-08,1e-09,x,3.2e-08,2.6e-08,3.2e-09,x,2.1e-09
Resorufin fluor,i,i,x,i,i,i,x,i
TSHR ag,-1%,x,u,3%,-1%,-22%,u,-5%
A488 fluor,i,i,x,i,i,i,x,i
AID923,-0.4%,1.5%,12%,-0.7%,10.0%,-0.5%,1.4%,-0.1%

33) O=C(NCCSc1ccccc1)c1ccco1
34) Oc1ccccc1-c1nc(NCc2ccco2)c2ccccc2n1
35) CCN(CC(=O)Nc1ccccc1C(=O)OC)S(=O)(=O)c1ccc(OC)cc1
36) Cc1csc(SCC(=O)c2ccc(S(=O)(=O)N3CCOCC3)cc2)n1
37) Cc1ccc(C)c(N2CCN(C(=O)CC3Sc4ccccc4NC3=O)CC2)c1 (configuration not stated)
38) COc1ccc(N(CC(=O)NCc2ccc3c(c2)OCO3)S(=O)(=O)c2c(C)nn(C)c2C)cc1
39) CCN(CC)S(=O)(=O)c1cccc(-c2nnc(SCC(=O)NC)n2CCc2ccccc2)c1
40) Cn1c(C(=O)NCCCN2CCN(c3ccccc3F)CC2)cc2c(=O)[nH]c3ccccc3c21
Compound,33,34,35,36,37,38,39,40
A647 fluor,1e-08,1.3e-08,8.7e-09,3.9e-08,1.9e-08,x,2.8e-08,3e-08
Resorufin fluor,i,i,i,i,i,x,i,i
TSHR ag,-1%,x,1%,-2%,x,-10%,u,2%
A488 fluor,i,i,i,i,i,x,i,i
AID923,0.9%,x,-0.5%,3.0%,2.8%,-1.5%,-1.4%,-0.1%

41) CCOC(=O)c1[nH]c2cc3c(cc2c1NC(=O)CN1CCC2(CC1)OCCO2)OCO3
42) COc1cc(OC)cc(C(=O)Nc2ccc(-n3cnnn3)c(C)c2)c1
43) CCCCC(=O)Nc1ccc(N2CCN(S(C)(=O)=O)CC2)cc1
44) O=C(CN1C(=O)NC(Cc2ccccc2)C1=O)Nc1ccccc1 (configuration not stated)
45) Cc1nc2c(o1)CCc1ccccc1C2N1CCN(C)CC1 (configuration not stated)
46) CCCn1c(=O)c2ccccc2n2c(SCC(=O)c3cc(C)n(CCOC)c3C)nnc12
47) Cc1ccc(S(=O)(=O)N[C@H]2COC(=O)C/C=C\[C@H](C)[C@@H](NS(=O)(=O)c3ccc(C)cc3)COC(=O)C/C=C\[C@@H]2C)cc1
48) Cn1cccc1Cc1nnc(SCC(=O)Nc2ccccc2F)n1CCc1ccccc1
Compound,41,42,43,44,45,46,47,48
A647 fluor,2.5e-08,3.4e-08,1e-09,1e-09,1e-09,4.5e-08,x,x
Resorufin fluor,i,i,i,i,i,i,x,x
TSHR ag,x,-5%[11.4 µM],-2%,11%,x,u,-4%[11.4 µM],20%
A488 fluor,i,i,i,i,i,i,x,x
AID923,x,1.5%,-0.4%,-2.2%,x,-0.2%,-0.1%[11.5 µM],-2.2%

Profiles from above. Screens in order: A647 fluor, Resorufin fluor, TSHR ag, A488 fluor, AID923
CCCCC(=O)Nc1ccc(N2CCN(S(C)(=O)=O)CC2)cc1 across the screens: 1e-09, i, -2%, i, -0.4%
CCCn1c(=O)c2ccccc2n2c(SCC(=O)c3cc(C)n(CCOC)c3C)nnc12 across the screens: 4.5e-08, i, u, i, -0.2%
Cn1cccc1Cc1nnc(SCC(=O)Nc2ccccc2F)n1CCc1ccccc1 across the screens: x, x, 20%, x, -2.2%
O=C(CN1C(=O)NC(Cc2ccccc2)C1=O)Nc1ccccc1 (configuration not stated) across the screens: 1e-09, i, 11%, i, -2.2%

Next section
49) CCOc1ccc(C(=O)N(CN2CCCC2=O)c2ccc(C)cc2)cc1
50) O=C(CN1C2=NCCCN2c2ccccc21)c1ccc(Br)s1
51) CCN(C(=O)CCN1C(=O)c2ccccc2C1=O)C1CCCCC1
52) OC[C@H]1NC[C@H](O)[C@@H](O)[C@H]1O
53) CC(C)(C)NC(=O)COC(=O)Cc1ccc(Cl)cc1
54) CCOC(=O)N1CCC(NC(=O)c2cc(S(=O)(=O)N3CCCC3)cn2C)CC1
55) COc1ccc(C)cc1-n1nnnc1SCC(=O)N1CCC(C(=O)Nc2nccs2)CC1
56) O=C(CN1CCCCC1)NCCNC(=O)CN1CCCCC1
Compound,49,50,51,52,53,54,55,56
A647 fluor,3.4e-08,2.4e-08,1e-09,x,1e-09,6.4e-09,1.8e-08,1.7e-08
Resorufin fluor,i,i,i,x,i,i,i,i
TSHR ag,13%,17%,7%[11.4 µM],4%,6%,1%,2%,6%
A488 fluor,i,i,i,x,i,i,i,i
AID923,-1.0%,0.8%,1.6%,0.0%,0.4%,-1.5%,-1.4%,0.2%

57) CCOC(=O)Nc1cc(OC)c(OC)cc1Cc1nccc2cc(OC)c(OC)cc12
58) CNC(=O)CSc1nnc(-c2cc3c(C)nn(-c4ccccc4)c3s2)n1C
59) COC(=O)c1ccc(C(c2c(N)n(Cc3ccccc3)c(=O)n(C)c2=O)N2CCOCC2)cc1 (configuration not stated)
60) CCC(O)(CCN1CCCCC1)c1ccccc1 (configuration not stated)
61) CCN(CC)c1ccc(C(=O)n2cnc3ccccc32)cc1
62) COc1ccc(C(OC(=O)c2ccco2)C(=O)NCc2ccco2)cc1 (configuration not stated)
63) COc1ccc(CN2C(=O)c3ccccc3C2C(=O)NCc2cccnc2)c(OC)c1 (configuration not stated)
64) CCC(=O)[C@@]1(O)C(=O)N2C(=C3C(=O)OCCC31)N(Cc1ccccc1)C(C)=C(C(=O)OC)C2c1ccccc1 (some centres not stated)
Compound,57,58,59,60,61,62,63,64
A647 fluor,2.9e-08,4.9e-08,2e-08,3.7e-08,x,1e-09,4.9e-09,x
Resorufin fluor,i,i,i,i,x,i,i,x
TSHR ag,11%,-2%,22%,-5%,10%,8%,8%,3%[11.4 µM]
A488 fluor,i,i,i,i,x,i,i,x
AID923,3.1%,-0.1%,-1.8%,-1.3%,1.1%,1.8%,4.2%,0.6%[11.5 µM]

65) CN1CCN(c2ccc(Cl)cc2NC(=O)c2nn(-c3ccccc3)c(=O)c3ccccc23)CC1
66) O=C(CSc1nnc(-c2ccco2)o1)NC1CCCCC1
67) COc1ccc(-c2nc(C#N)c(NCc3ccccc3Cl)o2)cc1
68) CCOc1ccc(N(CC(=O)Nc2ccc(F)c(F)c2)S(=O)(=O)c2c(C)noc2C)cc1
Compound,65,66,67,68
A647 fluor,5.5e-09,x,1e-09,x
Resorufin fluor,i,x,i,x
TSHR ag,9%,6%[11.4 µM],6%,17%
A488 fluor,i,x,i,x
AID923,-1.4%,-0.7%,-1.3%,2.1%

Not all compounds are listed (hit frequency here may not be typical).
